ClpP mod: qHTS Assay for Activators of ClpP | ATP-dependent Clp protease proteolytic subunit (Bacillus subtilis (strain 168)), P80244 | purified B. subtilis ClpP, FRET peptide cleavage, 20 min | Potency, µM (highest dose often 57.5 µM), inactives show at the highest dose activity change, negative = active | hit rate 1.9% among 340,000 | AID 651965, 2013; active = well fitted falling curve with a large enough effect; inconclusive = small, poorly fitted or top-dose-only effect; inactive = no such curve, though single readings can be large or run the other way; also: potency is read from the fitted curve at half-maximal effect; the source files actives as falling curves though it sought activators and does not explain the sign; nearly all actives have a fitted effect of over 65% in size; many hits overshoot -100%
Target sequence (P80244 whole entry, looked up): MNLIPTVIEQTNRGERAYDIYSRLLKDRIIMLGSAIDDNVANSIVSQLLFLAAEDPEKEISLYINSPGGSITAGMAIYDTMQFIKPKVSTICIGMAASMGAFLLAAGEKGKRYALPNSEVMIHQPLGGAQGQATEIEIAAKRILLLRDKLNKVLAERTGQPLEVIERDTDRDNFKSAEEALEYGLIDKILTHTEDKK
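FRET quenching reversal measured ClpP activation: 10 microg/mL B. subtilis ClpP at pH 8 with the FRET-FV decapeptide, read at 430 nm after 320 nm excitation. The 20-min minus 0-min signal was scaled between DMSO/no-enzyme wells and ADEP (5.8 microM final).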
TRPML1 blocker: blocks the human TRPML1 channel; Q9GZU1; activity change, negative = inhibition, % (test concentration not listed); TRPML1-inducible cells, Ca2+ dye fluorescence, FDSS; active compounds read low; inhibition of EC80 agonist-evoked calcium signal; hit rate 0.02% among 390,000; in the data active means activity change below about -50%; inconclusive means about -30% to -50%; inactive means above about -30%;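 also: stimulus is agonist 54-4 at its EC80 concentration; % is scaled to controls: 0 for no effect and ±100 for the full control effect; compound concentration not given in the record; the text of the record puts the active cut at -80%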
Target sequence (Q9GZU1 whole entry, looked up): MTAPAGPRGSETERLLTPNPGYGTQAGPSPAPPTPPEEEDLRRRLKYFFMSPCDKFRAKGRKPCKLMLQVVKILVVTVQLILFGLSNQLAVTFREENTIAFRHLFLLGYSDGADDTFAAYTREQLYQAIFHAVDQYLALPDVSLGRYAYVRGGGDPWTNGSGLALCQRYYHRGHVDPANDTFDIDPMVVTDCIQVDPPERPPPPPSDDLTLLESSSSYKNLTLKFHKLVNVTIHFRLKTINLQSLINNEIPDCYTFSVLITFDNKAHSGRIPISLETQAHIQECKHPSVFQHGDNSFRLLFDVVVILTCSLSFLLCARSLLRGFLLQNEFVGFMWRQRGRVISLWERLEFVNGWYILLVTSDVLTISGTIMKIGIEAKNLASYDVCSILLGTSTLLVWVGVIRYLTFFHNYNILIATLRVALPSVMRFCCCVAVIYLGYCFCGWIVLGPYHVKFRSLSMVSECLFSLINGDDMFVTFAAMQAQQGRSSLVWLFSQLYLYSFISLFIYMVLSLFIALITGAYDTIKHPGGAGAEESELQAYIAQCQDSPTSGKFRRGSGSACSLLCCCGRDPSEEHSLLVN
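TRPML1-DL cells, Tet-induced overnight (~16 h, 37 °C) at 1,500 cells/well, were loaded with Ca8 no-wash dye plus quencher for 45-90 min at room temperature. Compounds were pinned during FDSS kinetic reading; agonist 54-4 at EC80 (4 uM final) then added.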
gsp ag: activates gsp, the McCune-Albright syndrome mutation; AID 624287; Potency, µM (highest dose often 76.9 µM), for inactives: at the highest dose activation (cAMP increase), hits mostly activators; hit rate 0.13% among 340,000; gsp mutant cells, cAMP HTRF, 30 min; control for the full effect not named in the record; active = well fitted activation curve with a large enough effect; inconclusive = small, poorly fitted or top-dose-only effect, or another doubt; inactive = no such curve, though single readings can be large or run the other way; cell line not stated here;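 also: phosphodiesterase inhibitor Ro 20-1724 added with compounds to block cAMP breakdown; potency is read from the fitted curve at half-maximal effect; nearly all actives have a fitted effect of over 60% in size; about a fifth of the inactives were tested at one dose only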
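Cells stably selected in G418 were plated at 2000/well, grown 16-24 hr, then given compounds in DMSO with the PDE inhibitor […] (300 uM solution added) for 30 min at 37C; cAMP was read by HTRF.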
gsp antag: gsp mutant antagonism; Potency, µM (top dose mostly 76.9 µM), for inactives: at the highest dose activity change, negative = inhibition, actives largely listed as inhibitors; gsp-mutant cells, cAMP HTRF, 30 min; control for the full effect not named in the record; hit rate 0.4% among 340,000; AID 624288; active = falling curve of any shape with a large fitted effect; inconclusive = falling curve, mostly with a smaller effect; inactive = flat or rising curve; cell line not stated here;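 also: intracellular cAMP measured with PDE inhibitor Ro 20-1724 present during compound exposure; potency is read from the fitted curve at half-maximal effect; % is scaled to controls: 0 for no effect and ±100 for the full control effect; nearly all actives have a fitted effect of over 65% in size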
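G418-selected cells were plated in DMEM/10% FBS for 16-24 h at 37C, then treated with compounds plus the PDE inhibitor […] (300 uM solution added) for 30 min at 37C. Intracellular cAMP was measured by HTRF after 30 min lysis at room temperature.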
TRPML1 agonist: activates the human TRPML1 channel | TRPML1-expressing cells, Ca2+ dye fluorescence, FDSS; host cell line not named in the record; reference of the full effect not given here | activation, % (no concentration beside the values) | hit rate 0.12% among 410,000 | AID 624414; in the data active = activation above about 50%; inconclusive = about 30% to 50%; inactive = below about 30%; also: 0% is about no effect; the text of the record puts the active cut at 80%
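Kinetic FDSS Ca2+ read in Tet-induced TRPML1-DL cells (ABD Ca8 dye plus quencher, 45-90 min RT loading): baseline, then compound, then 110 s agonist window; EC80 agonist 54-4 at 4uM final added afterwards for a 110 s antagonist window.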
Menin-MLL FL inh: inhibitors of human menin-MLL interaction, wild-type MLL peptide | Fluorescence polarization, fluorescein-MLL peptide displacement from menin | FP activity change, % at 61.4 µM | 290,000 tested, under 10 active; inconclusive = falling polarisation curve, or a change in total fluorescence; inactive = total fluorescence flat and polarisation flat or rising; no compound was filed as active; the % refers to the polarisation; negative = inhibition;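 also: % of control where 0% means no effect; inhibitors lower the polarisation; unlabelled MLL peptide was the positive control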
Active calls of the source: *; ? = inconclusive; nt = not tested or not shown; & = joins results of further samples; [ ] = remark or other dose. Hits appear at their usual frequency (roughly 2.1% active in at least one column).

SMILES	ClpP mod	TRPML1 blocker	gsp ag	gsp antag	TRPML1 agonist	Menin-MLL FL inh
CN(C(=O)c1cccc(NC(=O)Cc2ccc(NC(=O)C3CCCN(S(=O)(=O)c4cccc([N+](=O)[O-])c4)C3)cc2)c1)C1CCCCC1 (configuration not stated)	0.9%	-3	nt	0%	0.0	nt
CC(=O)Nc1ccc(NC(=O)C(=O)c2cn(CC(=O)N3CCCC3)c3ccccc23)cc1	-1.6%	19	-49%[inhibitor]	5%	1.3	-7.6
O=C(Nc1cccs1)Nc1c(F)c(F)cc(F)c1F	1.1%	-15	10%	11%	-0.5	?
CCOC(=O)N1CCC(NS(=O)(=O)c2cc3c(cc2Br)CCN3C(=O)CC)CC1	1.9%	4	-10%	4%	0.4	nt
CN(C(=O)c1cccc(NC(=O)Cc2ccc(NC(=O)C3CCCN(C(=O)C4CCCCC4)C3)cc2)c1)C1CCCC1 (configuration not stated)	-1.3%	8	nt	-13%	1.1	nt
Cc1ccc(OCCC(=O)OCC(=O)NC2CCCC2)cc1	-3.5%	-8	-4%[15.4 µM]	6%	-0.3	nt
COc1ccccc1NS(=O)(=O)c1ccc(S(=O)(=O)N2CCOCC2)cc1	nt	-5	18%[15.4 µM]	-62%	0.1	2.0
CCCCCN(C(=O)NC(=O)Nc1nncs1)S(C)(=O)=O	-0.7%	0	5%	12%	0.5	0.9
CCNC(=S)NNC(=O)c1cc(-c2cccnc2)nc2ccccc12	-4.8%	9	-8%[15.4 µM]	-1%	-0.3	-2.0
Cc1cc(C)nc(N2CCN(c3ccc(F)cc3)CC2)n1	-0.5%	30	29%	-1%	2.1	-2.7
Cc1ccc(S(=O)(=O)CCC(=O)c2ccc(O)cc2O)cc1	1.2%	4	1%	2%	0.3	3.3
COc1ccc2[nH]cc(CCn3ccc(=O)c(C)c3C)c2c1	nt	-16	?	9%	-0.5	-1.8
CCCNC(=O)c1ccc(C)c(NC(=O)C2=C(C)OCCS2)c1	nt	-19	-1%	3%	0.6	-2.5
CCN(CC)S(=O)(=O)c1ccc2c(c1)N(CC(=O)Nc1ccccc1F)C(=O)C1CCCN21 (configuration not stated)	-2.4%	-5	nt	nt	0.0	nt
COC(CNC(=O)c1cccc(-n2c(=S)[nH]c3cc(Cl)ccc3c2=O)c1)OC	nt	35	6%[15.4 µM]	-4%	0.0	0.0
Clc1cccc(Nc2ncnc3c2cnn3-c2ccccc2)c1	-11%	23	9%	-28%	0.6	0.6
CCCCCC/C=N/Nc1nnc(Cc2ccccc2)c(=O)[nH]1	0.7%	-20	22%[15.4 µM]	-2%	-1.5	-1.2
CCOc1ccc(NC(=O)CN2C(=O)S/C(=C/c3cccn3C)C2=O)cc1	nt	-2	?	14%	0.9	-2.7
O=C(NCCc1ccccc1)c1ccccc1NC(=O)C1CCCO1 (configuration not stated)	nt	3	-71%[inhibitor]	2%	-0.5	-4.1
CC(C)(C)c1ccc(C(=O)Nc2ccc([N+](=O)[O-])cn2)cc1	1.0%	-2	-25%	12%	0.9	0.5
Cc1ncc([N+](=O)[O-])n1CC(=O)Nc1ccc(OC(F)(F)Cl)cc1	-0.5%	17	35%	4%	2.0	2.2
O=C(O)CCCC(=O)N1CCc2cc(S(=O)(=O)NCc3ccccc3)ccc21	0.0%&0.2%	2&-13	-5%	3%	0.8&-0.4	-0.8
CC(OC(=O)c1cc2sccc2n1C)C(=O)NCC1CCCO1 (configuration not stated)	-3.4%	-13	14%	-6%	-0.2	-0.5
O=C(Nc1cc2c(cc1Br)OCCCO2)c1cccnc1	-0.2%	-4	-12%[15.4 µM]	6%	-0.2	0.1
O=C1c2[nH]nc(-c3ccccc3O)c2C(c2ccc(F)cc2)N1Cc1ccco1 (configuration not stated)	-2.3%	24	?	?	0.6	8.1

Remaining list, next part.
SMILES	ClpP mod	TRPML1 blocker	gsp ag	gsp antag	TRPML1 agonist	Menin-MLL FL inh
Cc1nc(SCCO)c2oc3ccccc3c2n1	-1.6%	-18	-6%	9%	0.4	0.0
O=C(Nc1nc2c(s1)CCCC2)c1ccc(S(=O)(=O)N2CCCc3ccccc32)cc1	-7.8%	21	7%	-10%	0.5	4.3
CCOC(=O)C1CN(S(=O)(=O)c2ccc(OC)cc2)c2ccccc2O1 (configuration not stated)	nt	3	-9%	-4%	0.4	0.9
CC1CN(Cc2ccc(Cl)cc2Cl)CC(C)O1 (configuration not stated)	-1.5%	11	-3%	-1%	0.7	-0.2
COc1ccc(Cl)cc1NC(=O)NCc1cccnc1	-2.1%	-5	?	2%	0.1	nt
CCOC(=O)C1CCCN(CC(=O)Nc2c(C(=O)OC)[nH]c3ccc(Cl)cc23)C1 (configuration not stated)	-21%	-1	-25%	-22%	-0.8	1.8
Cc1ccc(CCC(=O)Nc2ncc(Cc3cc(Cl)ccc3Cl)s2)o1	-1.5%	14	57%	3%	1.9	1.6
Cc1ccc(Cn2c3ccccc3c3cn[nH]c(=O)c32)cc1	?	1	-10%	6%	-0.5	1.4
C/C(=N\NC(=O)CSc1nc(C)cc(C)n1)c1ccc([N+](=O)[O-])cc1	nt	-13	25%[15.4 µM]	11%	-0.1	0.8
Cc1cc(C)cc(OC(=O)CN2C(=O)c3ccccc3C2=O)c1	-1.4%	15	6%[15.4 µM]	-3%	3.5	4.0
CN(Cc1ccccc1)C(=C(Cl)Cl)C(=C1NCCN1)[N+](=O)[O-]	nt	-6	27%[15.4 µM]	15%	0.3	-1.4
Cc1cc(C(=O)Nc2ccc(S(=O)(=O)Nc3onc(C)c3C)cc2)cs1	1.2%	-2	37%	3%	-0.3	-0.4
Cc1nnc(SCC(=O)N2CCc3ccccc3C2)s1	-0.5%	-6	30%	11%	2.3	6.5
Cc1ccc2nnnc(-c3ccccc3)c2c1	-0.8%	-5	28%[15.4 µM]	6%	0.0	3.2
CCn1c(COc2cc(C)ccc2C(C)C)nnc1SCC(=O)Nc1nccs1	0.0%	-8	-2%	7%	0.3	0.4
COc1cc(NC(=O)C2CSC3(C)CCC(=O)N23)c(OC)cc1Cl (configuration not stated)	-1.2%	-27	-68%[inhibitor]	-17%	-0.8	nt
O=C(NC1CC(=O)N(c2ccc(F)cc2)C1)c1cc2ccccc2o1 (configuration not stated)	-0.4%	-1	nt	nt	-0.1	nt
COc1cc2c(cc1OC)CN(C(=O)C1CCCN1S(=O)(=O)c1ccc(C)cc1)CC2 (configuration not stated)	-0.8%	-11	-95%[inhibitor]	-6%	-0.2	-3.6
COc1ccc(CN(CC(=O)NC2CCCC2)C(=O)c2onc(C(N)=O)c2N)cc1	0.1%	-3	1%	1%	-0.2	4.0
Cc1ccc(-c2ccc(/C=N/N=C3/NC(=O)C(CC(=O)O)S3)o2)c([N+](=O)[O-])c1 (configuration not stated)	-0.9%	18	-33%[inhibitor]	5%	-1.3	3.4
Cc1onc(-c2c(Cl)cccc2Cl)c1C(=O)NCCc1ccncc1	-1.5%	24	24%	6%	-0.4	nt
C=CCOC(=O)C1=C[C@@H](c2coc3ccccc3c2=O)[C@H](CCCO)[C@@H](OCC)O1	-0.7%	5	nt	2%	-0.8	-0.3
CC(C)CNS(=O)(=O)c1ccc(CCC(=O)N2CCN(Cc3ccccc3)CC2)cc1	0.2%	5	-5%	-11%	-0.8	1.1
COc1ccc(-c2nnc(NC(=O)Cc3ccccc3)s2)c(OC)c1	3.9%	-1	?	10%	-0.2	4.1
Cc1ccc(NC(=O)c2cccc(S(=O)(=O)N3CCN(c4ccccc4)CC3)c2)nc1	nt	-6	1%[15.4 µM]	-7%	-0.3	nt

(next part)
SMILES	ClpP mod	TRPML1 blocker	gsp ag	gsp antag	TRPML1 agonist	Menin-MLL FL inh
Cc1ccccc1C(=O)N1CC(=O)Nc2ccc(Cl)cc2C1c1ccccc1 (configuration not stated)	-1.5%	-15	nt	nt	-0.4	nt
CC1=CC(C/C(C)=C/COc2ccc3ccc(=O)oc3c2)OC1=O (configuration not stated)	4.2%	-16	-62%[inhibitor]	-10%	0.1	1.2
CCN1CCN(C(=O)CN(C)S(=O)(=O)c2ccc(OC)c(C)c2)CC1	-1.1%	-12	-39%[inhibitor]	9%	-0.6	2.1
Cc1cccc(NS(=O)(=O)c2cccc(C(=O)NCC(c3ccc(F)cc3)N3CCOCC3)c2)c1 (configuration not stated)	-0.1%	0	6%	-2%	0.7	nt
Cc1cccc(NS(=O)(=O)c2ccc3c(c2)oc(=O)n3C)c1C	nt	-19	-1%	8%	0.4	2.4
Cc1ccc(CSc2ncnc3c2cnn3Cc2ccccc2)cc1C	0.6%	80	-19%	11%	-0.9	-1.3
CCCN(C(=O)c1cc2c(=O)[nH]c3ccc(C)cc3c2s1)c1ccc(CC)cc1	0.1%	1	nt	nt	0.0	nt
COc1ccc(C2CC(c3ccncc3)=NN2c2ccc(S(N)(=O)=O)cc2)cc1 (configuration not stated)	4.2%	12	nt	-1%	-0.1	nt
Cc1cccc(C)c1OCC(O)CN1CCN(c2ccccn2)CC1 (configuration not stated)	-9.2%	-4	-26%[15.4 µM]	13%	-0.8	0.4
Nc1c(C(=O)O)sc2nc(-c3ccccc3)c3c(c12)CCCC3	2.5%	11	?	-4%	0.5	7.8
COC(=O)c1c(C)oc2ccc(OC(=O)N3CCOCC3)cc12	-1.0%	23	-15%	-5%	0.0	3.9
CCCCn1c(N)c(N(CC(C)C)C(=O)c2cccc(-n3cnnn3)c2)c(=O)[nH]c1=O	0.9%	5	-2%	9%	0.0	nt
CCc1cccc(C)c1NC(=O)C(CC)n1ncn2c(cc3cc(C)ccc32)c1=O (configuration not stated)	-10%	23	nt	nt	-1.2	nt
Cn1cc(S(=O)(=O)NCC2CCCO2)c(=O)n(C)c1=O (configuration not stated)	nt	-18	5%	10%	-1.1	-0.7
Cc1ccccc1Sc1c(C#N)c(-c2ccccc2)nn1C	0.1%	27	-8%	-5%	2.6	0.2
C=C[C@@H]1c2ccccc2N(S(=O)(=O)c2ccc(C)cc2)[C@H](c2ccccc2C(F)(F)F)C1(C#N)C#N	-0.8%&-2.8%	-7	nt	1%	1.3&1.0	nt
O=[N+]([O-])c1ccc(N/N=C2/CCCCC2c2ccccn2)c([N+](=O)[O-])c1 (configuration not stated)	-1.4%	-8	-54%[inhibitor]	-21%	2.1	9.3
Cc1cccc(N(CC(=O)NC2CCCC2)C(=O)CCC(=O)Nc2ccccn2)c1	nt	2	29%[15.4 µM]	-45%	0.4	-1.3

Sorted by value in TRPML1 blocker (descending): 3 from the list above.
Compound	TRPML1 blocker
Nc1c(C(=O)O)sc2nc(-c3ccccc3)c3c(c12)CCCC3	11
O=[N+]([O-])c1ccc(N/N=C2/CCCCC2c2ccccn2)c([N+](=O)[O-])c1 (configuration not stated)	-8
CC1=CC(C/C(C)=C/COc2ccc3ccc(=O)oc3c2)OC1=O (configuration not stated)	-16

From PubChem BioAssay
